Screening results from PubChem.
nsP2pro primary: inhibitors of chikungunya virus nsP2 protease; Q8JUX6; FRET peptide cleavage, nsP2pro, fluorescence 1 h; Potency, µM (doses to about 24.9 µM), inactives show top-dose activity change, negative = inhibition, most hits filed as inhibitors; 31,000 compounds, 1.1% hits; active means well fitted inhibition curve with a large enough effect; inconclusive means small, poorly fitted or top-dose-only effect; inactive means no such curve, though single readings can be large or run the other way; note: nearly all actives have a fitted effect of over 60% in size; a reference inhibitor and vehicle were the controls
* hit, by the source's call; i = inactive; ? = inconclusive; [ ] = dose if it differs, or a comment. % is set by controls: 0 for no effect and ±100 for the full control effect; potency is the fitted concentration of half-maximal effect. A portion of the library (hit frequency here may not be typical).

SMILES	nsP2pro primary
Cc1ccn2c(=O)c(C(=O)NCCCN3CCCCC3C)c(O)nc2c1 (stereo not drawn)	-10.9%
COc1cc(O)c(C(=O)c2ccccc2)cc1S(=O)(=O)O	-4.1%
CCCOCCNC(=O)c1c(C)noc1-c1ccc(OC(F)(F)F)cc1	0.6%
C=C[C@@]1(C)CC(=O)[C@]2(O)[C@@]3(C)[C@@H](O)CCC(C)(C)[C@@H]3[C@H](O)[C@H](OC(C)=O)[C@@]2(C)O1	?
CCN(CC)CC(=O)Nc1c(C)cccc1C(=O)OC	3.8%
COc1cccc(N2C(=O)NC(=NC3CCCCC3)C23CCCN([S+](=O)([O-])c2cccs2)C3)c1 (stereo not drawn)	i
O=c1ccc2cc(O[C@@H]3O[C@H](CO)[C@H](O)[C@H](O)[C@H]3O)c(O)cc2o1	1.1%
Brc1cnc2nc(SCc3ccncc3)[nH]c2c1	3.3%
CCN(Cc1cnn(CC)c1)C(=O)C1COc2ccccc2C1 (stereo not drawn)	i
Cc1ccc(-c2cccc(CN3C4CCC3CN(C(C)C)C4)c2)c(C)c1	i
Cc1c(C(=O)N(Cc2ccccc2F)C2CCS(=O)(=O)C2)oc2ccc(F)cc12 (stereo not drawn)	-14.0%
CCOc1ccccc1-c1noc(CSc2nnc(-c3ccccc3)n2-c2ccc(F)cc2)n1	-25.9%
CN(C)CCN(Cc1ccco1)C(=O)c1oc2ccccc2c1NC(=O)c1ccccc1	9.7%
Cc1ccc(Cc2c(C)nc3nc(SCC(=O)NC4CCC(C)CC4)nn3c2C)cc1 (stereo not drawn)	-24.4%
CCOC(=O)COc1cc(C)c(Cl)cc1C(=O)c1ccn2nc(-c3ccc(OC)cc3)cc2n1	-26.3%
FC(F)(F)c1cc(Cl)cc(-c2ccc(CNc3nc(-c4ccccc4C(F)(F)F)nc4ccccc34)cc2)c1	-4.4%
O=C1CCN(C(=O)c2nccc3ccccc23)CCOCCN1	i
c1ccc(CCc2nc3nccc(-c4cccnc4)n3n2)cc1	-4.5%
Cc1cccc(N(C)c2nc3ccc(C(=O)c4ccccc4)cc3n3c(C)nnc23)c1	-34.1%
Cc1ccc(-c2ccc(=O)n(CC(=O)N(C)C(C)c3ccco3)n2)cc1 (stereo not drawn)	-13.9%

Not a retest: 13 of the compounds above.
SMILES	nsP2pro primary
Cc1ccn2c(=O)c(C(=O)NCCCN3CCCCC3C)c(O)nc2c1 (stereo not drawn)	-10.9%
COc1cc(O)c(C(=O)c2ccccc2)cc1S(=O)(=O)O	-4.1%
CCCOCCNC(=O)c1c(C)noc1-c1ccc(OC(F)(F)F)cc1	0.6%
C=C[C@@]1(C)CC(=O)[C@]2(O)[C@@]3(C)[C@@H](O)CCC(C)(C)[C@@H]3[C@H](O)[C@H](OC(C)=O)[C@@]2(C)O1	?
CCN(CC)CC(=O)Nc1c(C)cccc1C(=O)OC	3.8%
COc1cccc(N2C(=O)NC(=NC3CCCCC3)C23CCCN([S+](=O)([O-])c2cccs2)C3)c1 (stereo not drawn)	i
O=c1ccc2cc(O[C@@H]3O[C@H](CO)[C@H](O)[C@H](O)[C@H]3O)c(O)cc2o1	1.1%
Brc1cnc2nc(SCc3ccncc3)[nH]c2c1	3.3%
CCN(Cc1cnn(CC)c1)C(=O)C1COc2ccccc2C1 (stereo not drawn)	i
Cc1ccc(-c2cccc(CN3C4CCC3CN(C(C)C)C4)c2)c(C)c1	i
Cc1c(C(=O)N(Cc2ccccc2F)C2CCS(=O)(=O)C2)oc2ccc(F)cc12 (stereo not drawn)	-14.0%
CCOc1ccccc1-c1noc(CSc2nnc(-c3ccccc3)n2-c2ccc(F)cc2)n1	-25.9%
CN(C)CCN(Cc1ccco1)C(=O)c1oc2ccccc2c1NC(=O)c1ccccc1	9.7%

Additional entries follow.
SMILES	nsP2pro primary
NC(=O)c1noc([C@H](CCCC2CCCCC2)CC(=O)NO)n1	-15.7%
FC(F)(F)c1ccccc1-c1nccc(NCc2ccc(-c3cccnc3)cc2)n1	1.5%
CC(C)(C#CCSc1nnc(-c2cccc3ccccc23)o1)OC(=O)c1ccc(F)cc1	1.0%
O=S(=O)(Nc1ccc(O)c2ncccc12)c1ccccc1F	-29.1%
COc1cccc(C(=O)N2CCC(C(NC(=O)CC(C)C)C(=O)NCC(C)C)CC2)c1 (stereo not drawn)	4.3%
O=C1CCC2(CCN(C(=O)c3ccoc3)CC2)CN1CC1CCCO1 (stereo not drawn)	-0.2%
CCc1nnc(NC(=O)CSc2nc3c([nH]c4ccccc43)c(=O)n2-c2ccc(Cl)cc2)s1	-14.7%
CC1=CC(=O)OC(C)(CC(C)(O)C(=O)O)C1 (stereo not drawn)	-18.7%
COc1cccc(C(=O)N2CCC(Oc3ccccc3-c3nc(C4CCOCC4)no3)C2)c1 (stereo not drawn)	i
COc1cc(O)c(C(CC(=O)N2CCCC(C(F)(F)F)C2)c2ccc3c(c2)OCO3)c(OC)c1 (stereo not drawn)	-5.8%
COc1cccc(CCC(=O)N2CCC(OCC3CC3)C2)c1 (stereo not drawn)	i
Cc1cc2c(s1)c1cnn(Cc3cc(F)c(F)cc3F)c(=O)c1n2C	0.7%
O=C[C@H](O)[C@@H](O)[C@H](O)[C@H](O)CO[C@@H]1O[C@H](CO)[C@@H](O)[C@H](O)[C@H]1O	-17.5%
NCCCC[C@H](N)C(=O)Nc1ccc(Cl)cc1C(=O)c1ccc[nH]1	-0.4%
Cc1cccc(N2CCN(C(=O)Nc3ccc(F)cc3)CC2C)c1 (stereo not drawn)	-18.4%
Cc1nc(-c2ccc(C)c(S(=O)(=O)N3CCC(C(=O)NCc4ccc(Cl)cc4)CC3)c2)no1	-14.0%
C[C@@H]1C[C@@H]([C@H](O)CC2CC(=O)NC(=O)C2)C(=O)[C@@H](C)C1	?
Cc1cc2c(cc1S(=O)(=O)Nc1cccc(C(F)(F)F)c1)OCCN2C	-17.1%
COc1cccc(N2C(=O)NC(=NC3CCCC3)C23CCCN(Cc2cccn2C)C3)c1 (stereo not drawn)	?
COc1ccccc1-c1c[nH]c2ncc(-c3cncc(C(=O)N(C)C)c3)cc12	27.5%
COCCN1C(=O)c2ccccc2C(C(=O)Nc2ccc3[nH]ccc3c2)C12CCCC2 (stereo not drawn)	-0.1%
COc1cccc(C(=O)N2CCC(N3C(=O)c4c(c(C)nn4-c4ccccc4)C3C3CC3)C2)c1 (stereo not drawn)	i
CCOc1ccc(Cc2cc([C@@H]3O[C@H](CO)[C@@H](O)[C@H](O)[C@H]3O)ccc2Cl)cc1	-4.6%
Cc1ccc2c(c1)N(C(=O)CCC(=O)Nc1ccc(F)cc1F)CC(C)O2 (stereo not drawn)	0.4%
COc1cc(Cl)ccc1C(=O)Nc1nc(-c2ccccc2)cs1	-4.9%
CCOc1ccc(CNC(=O)c2ccc(Sc3ccc(C)cc3)c(N)c2)cc1OC	7.8%
CCCCN1C(=O)CC[C@H]2CN(C(=O)CCn3cccc3)CC[C@H]21	-26.2%
Cc1cc(C)n2c(Nc3ccccc3)c(-c3ccccc3)nc2n1	-11.7%
O=C(CN1CCN(Cc2cccc(Cl)c2)C1=O)NCc1ccc(F)cc1	-17.1%
C=C(C)[C@@H]1CC[C@]2(C(=O)O)CC[C@]3(C)[C@H](CC[C@@H]4[C@@]5(C)CC[C@H](OC(=O)CC(C)(C)C(=O)O)C(C)(C)[C@@H]5CC[C@]43C)[C@@H]12	26.1%
O=C(CSc1nccn1C1CCCC1)Nc1cc(C(F)(F)F)ccc1Cl	-12.2%
Cc1c(Cl)cccc1-n1ncc(C(=O)NCc2cccs2)c1C1CCN(C(=O)OC(C)(C)C)CC1	-7.4%
CC(=O)NC1CCN(c2nc(-c3ccc(Br)cc3)cs2)CC1	i
Cc1cccc(N2CCN(C(=O)CCn3c(=O)c4cccn4c4cccnc43)CC2C)c1 (stereo not drawn)	-11.4%
Cc1ccc(O)c(NC(=O)c2noc3c2CCCCC3)c1	-2.7%
CCn1cc(C(=O)OCC(=O)Nc2cc(OC)cc(OC)c2)c(=O)c2ccc(C)nc21	-9.6%
O=C(c1ccncc1)N1CC(N(Cc2ccncc2)CC2CC2)C1	i
CCOc1ccc(NC(=O)c2c(NCc3cccnc3)sc3c2CCC(C)C3)cc1 (stereo not drawn)	11.2µM*
O=C(c1ccccc1Cl)N1CCCCC1CCN1CCOCC1 (stereo not drawn)	-18.6%
Cc1ccc(S(=O)(=O)NCc2nc3nc(C)cc(C)n3n2)c(C)c1	-27.2%
CC(CCc1ccc(O)cc1)O[C@@H]1O[C@H](CO[C@H]2OC[C@](O)(CO)[C@H]2O)[C@@H](O)[C@H](O)[C@H]1O (stereo partly drawn)	-4.3%[10 µM]
COc1ccc(Br)cc1CNC(=O)c1cc2c(=O)n(C)c3ccccc3c2s1	-3.1%
COc1ccc(OC2CN(Cc3cccnc3)C2)cc1	i
CCOC(=O)c1c(NC(=O)COc2ccccc2)sc(C(C)=O)c1C	19.7%
O=C(c1cnc(N2CCOCC2)nc1)N1CCn2nc(C(O)C3CC3)cc2C1 (stereo not drawn)	-2.6%
O=C(Cc1ccc(Cl)c(Cl)c1)Nc1ccc([S+](=O)([O-])Nc2ccc([N+](=O)[O-])cc2)cc1	-28.5%
CCOc1ccc(-c2noc(CNC(=O)c3cc(-c4ccco4)[nH]n3)n2)cn1	0.794µM*
CC/C=C\CC1C(=O)C=CC1(CCCCC1CCC(=O)O1)OC(C)=O (stereo not drawn)	26.4%
CC1(C)CC[C@]2(C(=O)OC3OC(CO)C(O)C(O)C3O)CC[C@]3(C)C(=CCC4[C@@]5(C)CC[C@H](OC6OC(C(=O)O)C(O)C(OC7OC(CO)C(O)C(O)C7O)C6O)C(C)(C)C5CC[C@]43C)C2C1 (stereo partly drawn)	-4.6%[5.1 µM]
Cc1ccc(NS(=O)(=O)c2ccc3c(c2)n(C)c(=O)n3C)cc1C	0.1%

Continued.
SMILES	nsP2pro primary
Cc1nc2ncccn2c1C(=O)N[C@H]1CCOC[C@H]1C1CCOCC1	i
CCS(=O)(=O)N1CCC([C@@H](C)n2c(C)c(C(=O)NCc3c(OC)cc(C)[nH]c3=O)c3ccccc32)CC1	-10.5%
CCc1cc2c(cc3c(=O)n(CC(=O)NCCOC)nc(CC)n32)s1	4.8%
O=C(O)c1cc(-c2ccc(/C=C3\SC(=S)N(Cc4ccccc4)C3=O)o2)ccc1Cl	?
COc1ccc2nc(-c3ccc(N(C)C)cc3)sc2c1	3.1%
CC(CCC1C(C(=O)O)=CC(=O)CC1(C)C)O[C@@H]1O[C@H](CO)[C@@H](O)[C@H](O)[C@H]1O (stereo partly drawn)	78.3%[activator]
COc1ccc(OC)c(C(=O)c2c(N)c(-c3nc(-c4ccc(C)c(C)c4)cs3)c3ccccn23)c1	-23.1%
O=C(C[C@@H]1CCNC[C@@H]1Cc1cc(CN2CCCCC2)on1)NCc1cccs1	-14.5%[39.2 µM]
O=C(Nc1ccc(-c2ccccc2)cc1)Nc1nnc(-c2ccncc2)s1	-26.1%
COc1cc(Nc2nc(-c3ccncc3)nc3ccccc23)ccc1NS(C)(=O)=O	3.4%
Cc1ccc(S(=O)(=O)Nc2cnccc2C(=O)Nc2cccc3ccccc23)cc1	i
COc1cccc(C2c3c(ncn(-c4ccccc4-c4ccccc4)c3=N)Oc3ccc4ccccc4c32)c1 (stereo not drawn)	i
O=c1cc(-c2ccncc2)nc(-c2ccc(CN3CC[C@@H](O)C3)cc2)[nH]1	i
CC1CC(=O)N(CC(=O)Nc2ccc(OC(F)(F)F)cc2)c2ccccc2S1 (stereo not drawn)	-9.0%
CCCC(CCC)C(=O)Nc1ccn([C@@H]2O[C@H](CO)[C@@H](O)C2(F)F)c(=O)n1	-9.7%
NS(=O)(=O)OC[C@@H]1C[C@@H](n2ccc3c(N[C@H]4CCc5ccccc54)ncnc32)C[C@@H]1O	?
c1ccc(CCNCc2ccccc2)cc1	-0.3%
CC(C)Cc1cc(C(=O)N2C[C@H](C3CC3)[C@@H](N)C2)n(C)n1	1.0%
COCCNC(=O)Nc1ccc2nc(-c3cccs3)c(-c3cccs3)nc2c1	?
O=C(NC1CCCCC1)O[C@@H]1CO[C@H]2[C@@H]1OC[C@@H]2n1nnnc1SCc1ccco1	0.447µM*
O=C(O)c1ccc2c(c1)C(=O)N([C@H](Cc1ccc(O)cc1)C(=O)O)C2=O	0.4%
COc1nc(-c2ccc3c(c2)OCO3)n(-c2ccc(NC(=O)CSc3ccccc3)cc2)n1	9.3%
CCc1c(C)c2ccc3c(c2oc1=O)CN(Cc1ccccc1)CO3	13.9%
O=S(=O)(c1cccc(C(F)(F)F)c1)N1CCN(S(=O)(=O)c2ccc3c(c2)OCCO3)CC1	-10.6%
Cc1ccc(N(Cc2cccs2)C(=O)c2ccccc2[N+](=O)[O-])cc1	-10.9%
NCCCC[C@H](NC(=O)[C@@H]1Cc2ccccc2CN1C(=O)CCC(=O)c1ccccc1)C(=O)NCC(c1ccccc1)c1ccccc1	27.9%
O=C1CN(S(=O)(=O)c2ccc3c(c2)OCCO3)CCN1S(=O)(=O)c1c(F)cccc1F	-3.2%
COc1cc(NC(=O)Nc2nnc(N3CCCCC3)s2)cc(OC)c1	-7.3%
O=c1n(Cl)c(=O)n(Cl)c(=O)n1Cl	-9.5%
CCc1ccc(C(=O)Nc2ccc3nn(-c4ccc(C)c(Cl)c4)nc3c2)cc1	-14.9%
COc1ccc(CNC(=O)CN2C(=O)CCn3nc(-c4ccccc4)cc32)c(OC)c1	-19.1%
CO[C@H]1/C=C/[C@@](C)(O)/C=C/C(=O)O[C@H](C)[C@@H](C)CC/C=C/1C	0.4%
Cc1ccc(C(=O)N(CCCN)C(c2nc3cc(Cl)ccc3c(=O)n2Cc2ccccc2)C(C)C)cc1 (stereo not drawn)	76.2%[activator]
O=C(CN1C(=O)COc2ccc(S(=O)(=O)Nc3ccccc3)cc21)NCc1ccccc1Cl	-7.1%
CC1COC2(OC3CC4C5CC(O[C@@H]6O[C@H](C)[C@@H](O[C@@H]7O[C@@H](C)[C@H](O)[C@@H](O)[C@H]7O)[C@H](O)[C@H]6O)C6CC(O)CCC6(C)C5CCC4(C)C3C2C)C(O)C1 (stereo partly drawn)	-3.8%[10 µM]
